# High-throughput results from PubChem.
# E coli growth = inhibitors of Escherichia coli growth; OD600, 23 h; hits give low values; OD600 absorbance (test concentration not listed); hit rate 0.21% among 330,000; AID 1053175;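 active = OD600 absorbance below the run mean of sample wells minus 3.6 SD, in any replicate, cut at about 0.56 in these data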;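 note: stock transfer was 300 nL into about 60 µL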
# Ecoli rRNA inh = inhibits bacterial ribosomal RNA function over humanized ribosomes | E. coli WT GFP vs humanized-ribosome RFP mutants, fluorescence, 24 h; hits give low values; DMSO median 0, no signal -100 | AID 720706 | GFP signal change (wild-type ribosome), % (no concentration beside the values) | hit rate 1.6% among 350,000;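 active = significant combined selectivity score with lowered wild-type GFP, culture density cut under 30%, mutant RFP and density less affected; inactive = any of these conditions unmet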; note: one replicate is shown; some compounds called inactive have numbers as strong as hits
# MLL AF4-AF9 inh = inhibitors of human MLL-AF4/AF9 interaction. AID 651704. hit rate 0.47% among 350,000. AlphaScreen, biotin-AF4 peptide binding to FLAG-AF9. inhibition, % at 10 µM. P42568;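 active = every replicate reaching a set inhibition limit, whatever the replicate mean, cut at about 25% in these data; inconclusive = mean inhibition reaches that limit but some replicates miss it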;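 note: 0% = plate neutral control median and 100% = total signal loss; the record names both 10 and 1 µM as test concentration; the first replicate is given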
# HNF4A DNA FP = change in binding of human HNF4 alpha to DNA | P41235 | HNF4a-FITC DNA binding, fluorescence polarization, 1 h | activity change, % at 10 µM | hit rate 0.3% among 360,000; in the data active = activity change above about 30%, passing the limit was not always enough;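 note: controls were the assay level and a saturating level of protein; the project sought stronger binding though the title names inhibitors; some compounds called inactive have numbers as strong as hits; positive values seem to mean higher polarization but the record does not say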
# Target sequence (P41235 whole entry, looked up): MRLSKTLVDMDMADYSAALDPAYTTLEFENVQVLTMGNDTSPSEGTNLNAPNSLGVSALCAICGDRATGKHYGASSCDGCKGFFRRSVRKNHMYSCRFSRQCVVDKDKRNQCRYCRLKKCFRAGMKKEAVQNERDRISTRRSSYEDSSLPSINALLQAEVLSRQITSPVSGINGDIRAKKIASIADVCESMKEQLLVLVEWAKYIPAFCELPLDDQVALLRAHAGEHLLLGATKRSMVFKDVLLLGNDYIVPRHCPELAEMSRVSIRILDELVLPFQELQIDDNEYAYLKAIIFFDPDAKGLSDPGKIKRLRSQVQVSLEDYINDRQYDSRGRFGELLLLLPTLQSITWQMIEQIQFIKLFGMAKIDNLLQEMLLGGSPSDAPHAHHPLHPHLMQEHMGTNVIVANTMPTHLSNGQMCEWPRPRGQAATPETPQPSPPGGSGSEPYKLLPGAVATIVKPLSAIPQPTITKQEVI
# Vif A3G = inhibitors of Vif binding to APOBEC3G peptide, primary screen, biochemical, TR-FRET, GST-Vif 1-94, biotin-A3G peptide, dose response retest (AID 1117319); TR-FRET GST-Vif / biotin-A3G peptide binding; higher % means a stronger effect; test concentration not given here; strong numbers were not always called active; hit rate 0.57% among 260,000; one-dose inhibition, %; IC50 in µM for titrated hits;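 active = above the screen mean plus three standard deviations and confirmed in dose response; inconclusive = results disagree or hit not tested in dose response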;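 note: Vif residues 1-94 fused to GST binding biotinylated APOBEC3G peptide 110-148; 0% = full assay without inhibitor and 100% = GST in place of GST-Vif; retest series ran down from 100 µM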
# ALR H2O2 inh = inhibitors of human sulfhydryl oxidase ALR; P55789; purified ALR, DTT oxidation, H2O2 HRP-luminol luminescence; inhibition, % (no concentration beside the values); hit rate 3.8% among 290,000; AID 485317;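 active = mean and each replicate at 75% or more; inconclusive = only one of the two met; inactive = neither met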;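 note: stock transfer was 7.5 nL into about 7.5 µL; 0% = neutral wells and 100% = wells with inactivated enzyme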
# Target sequence (P55789 whole entry, looked up): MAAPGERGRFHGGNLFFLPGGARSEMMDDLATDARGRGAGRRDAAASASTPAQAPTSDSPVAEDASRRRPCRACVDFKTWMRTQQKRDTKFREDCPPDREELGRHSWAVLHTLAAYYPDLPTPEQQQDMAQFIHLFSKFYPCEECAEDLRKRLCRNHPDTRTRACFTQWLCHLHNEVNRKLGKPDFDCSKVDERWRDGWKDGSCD
# FGF22 binding = FGF22 (human) thermal shift binding; recombinant FGF22 thermal shift, SYPRO orange fluorescence; percent of sucrose octasulfate shift, DMSO zero; hit rate 1.5% among 340,000; calls only at 9.99 µM;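 active = melting point raised past a set limit in the mean and every replicate; inconclusive = no clear call; three in four hits are not shown here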
# Target sequence (Q9HCT0 whole entry, looked up): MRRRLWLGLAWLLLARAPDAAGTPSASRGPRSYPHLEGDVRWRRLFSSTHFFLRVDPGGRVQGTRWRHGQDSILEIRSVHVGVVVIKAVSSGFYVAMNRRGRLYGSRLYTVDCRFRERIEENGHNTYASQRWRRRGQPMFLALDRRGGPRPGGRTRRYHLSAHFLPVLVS
# Ecoli rRNA inh OD600 = also measured in Ecoli rRNA inh; calls as there; OD600 change, %; measured here: OD600 growth;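 optical density of the mix in the first replicate; 0 = DMSO median and -100 = no signal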
# Ecoli rRNA inh RFP = second read-out of Ecoli rRNA inh, no call of its own (marks repeat the call); RFP signal change, %; measured here: RFP humanized mutant strains;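 first replicate; 0 = DMSO median and -100 = no signal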
# Active calls of the source: *; i = inactive; ? = inconclusive; / = no result given; + = active, no number.
SMILES,E coli growth,Ecoli rRNA inh,Ecoli rRNA inh OD600,Ecoli rRNA inh RFP,MLL AF4-AF9 inh,HNF4A DNA FP,Vif A3G,ALR H2O2 inh,FGF22 binding
O=C1C2C3C=CC(c4ccccc4)(C2C(=O)N1c1cccc(Cl)c1)C1C(=O)N(c2cccc(Cl)c2)C(=O)C31 (centres undefined),0.664,/,/,/,/,3.5,/,-6.2,/
CCc1nc(SCC(=O)NCc2ccco2)c2c(=O)n(C)c(=O)n(C)c2n1,0.706,3.2,4.5,-6.0,1.6,-1.6,1.9%,27.7,i
COc1ccc(S(=O)(=O)Nc2ccc3c(c2)C(=O)N([C@@H](C)CO)C[C@H](C)[C@H](CN(C)C(=O)CCC(F)(F)F)OCCCC[C@@H](C)O3)cc1,/,1.0,-4.6,1.9,0.3,/,/,/,i
O=S(=O)(Nc1cccc2cccnc12)c1ccccc1,/,-55.2,-75.2,-14.5,2.5,0.3,/,-20.5,i
C[C@@H]1CN([C@H](C)CO)C(=O)c2c(c3ccccc3n2C)-c2ccccc2CO[C@@H]1CN(C)C(=O)[C@@H](Cc1ccccc1)N(C)C,/,0.7,1.2,-1.5,11.5,/,/,/,i
Cc1ccc([N+](=O)[O-])c2c1C(N1CCCCC1)C(C)(C)O2 (centres undefined),0.654,-1.2,8.6,-0.7,-2.3,2.7,-5.8%,-16.8,i
N/C(=N\OS(=O)(=O)c1ccc(Cl)cc1)c1ccncc1,0.725,28.1,11.8,1.0,-25.4,-0.2,?,-15.6,i
C[C@H](CO)N1C[C@H](C)[C@H](CN(C)Cc2ccccc2)OCCCC[C@H](C)Oc2ccc(NC(=O)NC3CCCCC3)cc2C1=O,/,-5.2,-24.2,8.8,5.2,/,/,/,i
CSc1nsc(/C=C/Nc2ccc(C)cc2)c1C#N,0.766,/,/,/,/,96.0,?,-43.8,/
Cc1nnc(NS(=O)(=O)c2ccc(N=Nc3ccc(N)nc3N)cc2)s1,0.666,2.2,13.3,-0.8,1.2,0.3,21.6%,/,i

# Single records, as listed above:
# Record of COc1ccc(S(=O)(=O)Nc2ccc3c(c2)C(=O)N([C@@H](C)CO)C[C@H](C)[C@H](CN(C)C(=O)CCC(F)(F)F)OCCCC[C@@H](C)O3)cc1 : E coli growth = /; Ecoli rRNA inh = 1.0; Ecoli rRNA inh OD600 = -4.6; Ecoli rRNA inh RFP = 1.9; MLL AF4-AF9 inh = 0.3; HNF4A DNA FP = /; Vif A3G = /; ALR H2O2 inh = /; FGF22 binding = i
# Record of Cc1ccc([N+](=O)[O-])c2c1C(N1CCCCC1)C(C)(C)O2 (centres undefined) : E coli growth = 0.654; Ecoli rRNA inh = -1.2; Ecoli rRNA inh OD600 = 8.6; Ecoli rRNA inh RFP = -0.7; MLL AF4-AF9 inh = -2.3; HNF4A DNA FP = 2.7; Vif A3G = -5.8%; ALR H2O2 inh = -16.8; FGF22 binding = i
# Record of CSc1nsc(/C=C/Nc2ccc(C)cc2)c1C#N : E coli growth = 0.766; Ecoli rRNA inh = /; Ecoli rRNA inh OD600 = /; Ecoli rRNA inh RFP = /; MLL AF4-AF9 inh = /; HNF4A DNA FP = 96.0; Vif A3G = ?; ALR H2O2 inh = -43.8; FGF22 binding = /

# The results go on:
SMILES,E coli growth,Ecoli rRNA inh,Ecoli rRNA inh OD600,Ecoli rRNA inh RFP,MLL AF4-AF9 inh,HNF4A DNA FP,Vif A3G,ALR H2O2 inh,FGF22 binding
CCOc1cc(/C=C2\SC(N3CCCCC3)=NC2=O)ccc1O,0.666,-19.3,-20.3,8.2,1.2,7.3,1.0%,85.2*,i
Cc1ccc(/C=N/NC(=O)CN2C(=O)CSc3ccccc32)o1,/,16.8,0.2,-0.2,/,-4.0,-8.0%,-3.6,i
CCCCCCCCN1C(=O)[C@H](CC(=O)N2CCSCC2)C[C@@]2(C(=O)OCC)CCCC=C12,/,-15.9,-12.5,1.5,2.0,-1.9,/,/,i
CCn1nc(C)c(Br)c1-c1nc(CS(=O)(=O)c2ccsc2)no1,0.656,-34.2*,-9.8*,-2.0*,/,3.5,9.6%,0.0,i
COc1cc(NC(=O)CSc2nc3ccccc3c(=O)n2C)ccc1NC(=O)c1ccco1,0.709,/,/,/,/,-0.3,1.9%,/,/
Cc1ccc(-c2[nH]n3c(=O)c4c(nc3c2C)CCCC4)cc1,0.706,-2.1,1.2,-1.3,/,1.9,?,-0.6,/
O=C(c1cccc(F)c1)N1CCCCN2[C@H](CO)[C@@H](c3ccc(-c4cncnc4)cc3)[C@H]2C1,/,3.6,15.7,1.9,-3.9,/,/,/,i
CCCN(C)C[C@H]1Oc2cc(-c3ccncc3)ccc2S(=O)(=O)N([C@H](C)CO)C[C@H]1C,/,0.5,7.8,-0.5,-0.6,/,/,/,+
CN(C)C(=O)C[C@@H]1C[C@H]2c3cc(NS(C)(=O)=O)ccc3O[C@H]2[C@H](CO)O1,/,2.6,5.1,0.1,0.0,/,/,/,i
CCOc1ccc(NC(=O)CSc2nccn2Cc2ccco2)cc1,0.707,/,/,/,4.1,0.8,1.3%,-13.4,i
Cc1cc(C(F)(F)F)nn1CC(=O)Nc1ccc2c(c1)OCO2,0.68,13.3,7.1,-0.1,-1.1,1.9,/,3.3,i
CCCCCCCN1C(Nc2ccccc2)=NC[C@@H]1CC(C)C,/,-58.3,-82.1,-34.1,4.6,-1.2,/,-3.9,i
CCCc1nnc(NC(=O)CN2C(=O)C3C4C=CC(C4)C3C2=O)s1 (centres undefined),0.695,/,/,/,/,-2.4,0.5%,-1.3,/
COc1ccc(OC)c(NC(=O)c2cccc(S(=O)(=O)N3CCN(C(C)=O)CC3)c2)c1,0.649,5.4,10.6,-3.0,2.8,-0.1,/,-18.6,i
O=C(O)c1cnn(-c2ccccc2)c1-c1ccccc1,0.719,/,/,/,/,1.6,8.6%,-1.8,/
CC(C)C(=O)N1CCN(c2ccc(NC(=O)COc3ccccc3[N+](=O)[O-])cc2)CC1,0.671,8.8,24.7,11.2,2.3,2.0,8.5%,0.1,i
O=C(CSc1cn(CCNC(=O)c2cccs2)c2ccccc12)NC1CCCCC1,0.737,-9.7,-16.3,-0.9,-8.5,-3.0,1.0%,29.0,i
COc1ccc(N2CCN(c3nccs3)CC2)cc1,0.683,5.9,-6.4,-0.3,6.7,-1.8,/,57.9,i
C[C@@H]1CN([C@H](C)CO)C(=O)Cc2cc(NS(=O)(=O)c3ccc(F)cc3)ccc2O[C@@H]1CN(C)Cc1ccc(C(=O)O)cc1,/,1.4,2.8,-2.3,-3.6,/,/,/,i
CCCC#Cc1ccc2c(c1)O[C@@H](CN(C)C(=O)Nc1ccccc1F)[C@@H](C)CN([C@H](C)CO)S2(=O)=O,/,-3.6,-1.8,1.9,5.7,/,/,/,i
Cc1cc(C(=O)COc2ccc(C#N)cc2)c(C)n1C1CC1,0.672,5.8,14.2,1.7,-9.4,-2.8,/,-4.8,i
CC(OC(=O)c1cccc([N+](=O)[O-])c1)C(=O)N1CCc2ccccc21 (centres undefined),0.645,-0.4,-1.2,-0.1,5.5,1.5,2.4%,-1.7,i
COc1ccc2oc(C(=O)OCC(=O)N3CCCC(C)C3)c(C)c2c1 (centres undefined),0.654,-8.6,-16.4,1.5,-50.0,3.3,0.2%,-4.3,i
CC(C)(C)NC(=O)NC(=O)Cn1cc(C(F)(F)F)ccc1=O,0.694,/,/,/,/,3.9,?,/,/
Cn1nccc1C(=O)OCC(=O)Nc1ccccc1Cl,0.602,3.9,0.7,-1.6,-6.0,-1.9,/,/,i
CCOC(=O)C1CCN(S(=O)(=O)c2cccc(-c3cn4cc(Cl)ccc4n3)c2)CC1,0.712,/,/,/,/,0.3,-1.5%,99.0*,/
O=C(c1cnccn1)N1CC(=O)N2[C@H](CO)[C@H](c3ccc(C#CCc4ccccc4)cc3)[C@@H]2C1,/,1.4,15.4,-3.4,-2.7,/,/,/,i
COc1ccc(NC(=O)Nc2ccc3c(c2)CC(=O)N([C@@H](C)CO)C[C@H](C)[C@H](CN(C)S(=O)(=O)c2ccccc2)O3)cc1,/,-1.0,-13.4,-0.1,2.7,/,/,/,i
CCCN(C)C[C@H]1OCc2cnnn2CCCC(=O)N([C@@H](C)CO)C[C@@H]1C,/,1.8,1.0,-0.4,-1.8,/,/,/,i
Cn1ncc(Br)c1C(=O)Nc1c(F)c(F)cc(F)c1F,0.662,10.1,1.7,5.8,/,4.8,2.2%,-6.7,/
Cn1c(=NC(=O)C2CC2)sc2cccc(F)c21,0.733,-3.9,-9.7,-7.7,-12.8,5.9,17.0%,-1.6,i
CCc1ccc(N(C(=O)c2snc(C(N)=O)c2N)C(C(=O)NCC2CCCO2)c2cccs2)cc1 (centres undefined),0.695,-18.5,-16.2,0.8,6.8,7.3,3.7%,-11.5,i
CC1CCc2c(sc(N)c2C(=O)OC(C)C)C1 (centres undefined),0.69,/,/,/,/,3.0,9.2%,56.8,/
O=C(CCl)N1CCN(CC(=O)N2CCCC2)CC1,0.68,10.3,14.7,-0.9,-5.2,8.3,-6.2%,-3.1,i
COc1cccc2sc(NNC(=O)C3=COCCO3)nc12,0.705,13.0,17.4,-1.0,-1.6,4.2,7.8%,15.9,i
Nc1cc(N)nc(SCC(=O)NCc2ccco2)n1,0.711,-0.4,-1.7,1.1,-1.6,-2.1,3.6%,1.2,i
COc1ccc(/C=C/C(=O)Oc2cccc(/C=N/NC(=O)c3cccc(F)c3)c2)cc1,/,/,/,/,/,11.3,5.2%,-4.3,/
COc1cccc(C(c2c(N)[nH]c(=S)[nH]c2=O)c2c(N)[nH]c(=S)[nH]c2=O)c1,0.699,1.4,7.6,1.1,-9.8,1.9,/,?,i
NS(=O)(=O)c1ccc(CCNC(=O)C2Cc3ccccc3CN2C(=O)c2ccco2)cc1 (centres undefined),0.702,/,/,/,/,5.8,-3.8%,22.2,/
O=S(=O)(NC1CCCC1)c1ccc(-n2cnnn2)cc1,0.659,1.0,9.9,2.5,-16.9,-1.7,/,-4.1,i
COc1cccc(CNS(=O)(=O)c2cc3c4c(c2)CCC(=O)N4CCC3)c1,0.651,-4.8,-6.9,-1.9,0.6,-1.9,2.1%,-9.0,i
O=C(C[C@@H]1CC[C@@H](NC(=O)C2CCC2)[C@@H](CO)O1)NCC1CC1,/,-0.4,-2.7,-1.8,-1.6,/,/,/,i

# The list is partial. The share of hits here may be higher or lower than overall.
